Screening data from PubChem.
Rango-impB inh = qHTS Assay for Inhibitors of Rango (Ran-regulated importin-beta cargo) - Importin beta complex formation; Importin subunit beta-1 (Homo sapiens), Q14974; Rango CFP/YFP FRET sensor + importin beta, 45 min; Potency, µM (titrated, usually from 92.2 µM), inactives show top-dose inhibition of complex formation; 340,000 compounds, 0.031% hits; AID 540263, 2011; active = rising FRET ratio curve, often small or poorly fitted; inconclusive = mostly compound fluorescence or quenching in the first reads; inactive = flat curves in all reads;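 further: potency means the concentration at half of the fitted maximal effect; 0% = DMSO wells and 100% = buffer wells lacking importin beta; nearly all actives have a fitted effect of over 15% in size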
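Inhibition scored from the CFP 486 nm/YFP 530 nm FRET ratio 45 min after adding 0.125 microM importin beta to 50 nM Rango biosensor preincubated 5 min with compound (room temperature, PBS with DTT, Tween-20, BSA). No-importin wells as positive control.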
GLA inh pH 4.5 = qHTS Assay for Inhibitors of Human alpha-Galactosidase at pH 4.5; Alpha-galactosidase A (Homo sapiens), P06280; purified enzyme, 4-MU-alpha-Gal fluorescence, pH 4.5; activity change, negative = inhibition, % at 105 µM; 230,000 tested, under 10 active; AID 1467, 2008; inconclusive = small, poorly fitted or top-dose-only inhibition, or a rising curve; inactive = flat fitted curve, though single readings scatter; no compound was filed as active;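 further: 0% = full activity with enzyme and -100% = basal without enzyme; dose as in the result columns while the protocol names 77 µM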
Target sequence (P06280 whole entry, looked up): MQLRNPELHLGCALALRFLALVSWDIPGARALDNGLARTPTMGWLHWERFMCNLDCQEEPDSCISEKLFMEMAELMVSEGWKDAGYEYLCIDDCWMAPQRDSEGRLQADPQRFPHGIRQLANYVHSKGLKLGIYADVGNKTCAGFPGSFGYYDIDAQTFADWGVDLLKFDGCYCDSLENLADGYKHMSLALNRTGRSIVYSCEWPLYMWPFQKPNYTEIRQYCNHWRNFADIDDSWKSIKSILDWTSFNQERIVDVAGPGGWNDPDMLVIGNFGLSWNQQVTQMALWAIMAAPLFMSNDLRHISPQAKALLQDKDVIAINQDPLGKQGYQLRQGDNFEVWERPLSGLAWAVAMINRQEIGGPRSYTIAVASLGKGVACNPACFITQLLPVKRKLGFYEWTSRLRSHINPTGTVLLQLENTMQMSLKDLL
Rango dissoc inh = qHTS Assay for Inhibitors of RanGTP induced Rango (Ran-regulated importin-beta cargo) - Importin beta complex dissociation; Snurportin-1 (Homo sapiens) + GTP-binding nuclear protein Ran (Homo sapiens) + Importin …; Biochemical FRET Rango-importin beta, RanGTP-induced dissociation; AID 540253, 2011; Potency, µM (doses to about 46.1 µM), without a hit: at the top dose activity change, negative = inhibition; 340,000 compounds, 0.071% hits; active means falling FRET ratio curve, often poorly fitted, with flat reads before Ran was added; inconclusive means other falling curves, or compound fluorescence or quenching; inactive means flat or rising ratio curve;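 further: potency means the concentration at half of the fitted maximal effect; % of control where 0% means no effect; nearly all actives have a fitted effect of over 45% in size; -100% = wells without RanGTP and RCC1; the record marks most hits as doubtful in a second field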
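Rango FRET biosensor (snurportin-1 IBB flanked by N-terminal EYFP and C-terminal CFP10) at 0.1 uM, with 0.25 uM importin beta in PBS, 1mM DTT, 0.02% Tween-20, 0.1% BSA. 0.6 uM Ran, 2mM GTP and 0.2 uM RCC1 were then added for 45 min at room temperature. Inhibition read as loss of FRET rise.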
miR-21 FLuc = qHTS Assay for Modulators of miRNAs and/orActivators of miR-21; HeLa miR-21 FLuc reporter, luciferase, 48 h; Potency, µM (series often up to 38.3 µM), for inactives: top-dose reporter change, positive = more light; 340,000 tested, under 10 active; active = well fitted rising curve with a large enough effect; inconclusive = small, poorly fitted or top-dose-only effect; inactive = no such curve, though single readings can be large or run the other way;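 further: % of control where 0% means no effect; miR-21 action dims this reporter so a rising signal means less miR-21 action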
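Compounds were titrated across several concentrations (up to approximately 40 uM) and incubated 48 hours with HeLa miR-21-FLuc reporter cells (miR-21 target sequence downstream of FLuc, endogenous miR-21). Readout was firefly luciferase luminescence after lytic detection reagent.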
* marks the source's active call; other numbers are inactive results; ? = inconclusive; nt = no result given; & = joins results of further samples.

SMILES	Rango-impB inh	GLA inh pH 4.5	Rango dissoc inh	miR-21 FLuc
CCCn1nc([N+](=O)[O-])c(C(C#N)c2nc3ccccc3s2)c(Cl)c1=O (stereo not given)	0.0%	-7	-3%	?
O=C(CN1CCCCCC1)Nc1cc(C(F)(F)F)ccc1Cl	0.8%	-3	6%	0%
O=C(c1ccc(Cl)cc1)c1cn[nH]c1-c1ccccc1O	7.2%	2	-3%	-8%
O=c1c(Cc2ccccc2)c(O)nc2n1CCCS2	-0.7%	-4	1%	2%
CCC(=O)c1c[nH]c(C(=O)N2CCOCC2)c1	-4.6%	nt	11%	0%
NC(=O)CC(NC(=O)Cc1cccc2ccccc12)c1ccc(NCC2CC2)c([N+](=O)[O-])c1 (stereo not given)	-0.8%	5	-20%	-1%
CCOc1ccc(-c2nnc(SCc3nnc(-c4ccccc4)o3)n2-c2ccccc2F)cc1	2.1%	-8	10%	-35%
Cc1cc(-c2ccc(C)c(S(=O)(=O)NCCCN(Cc3ccccc3)C(C)C)c2)on1	2.4%	nt	-13%	1%
O=C(C1=C[C@@H](c2coc3ccccc3c2=O)C[C@@H](OCc2ccc(CO)cc2)O1)N1CCCCCCC1	0.5%	-2	-12%	-4%
Fc1ccc(Nc2c3c(nc4ccccc24)CCC3)cc1	-1.7%	-7	11%	?
O=C(/C=C/c1ccc2c(c1)OCO2)Nc1ccc(Cl)cn1	1.2%	2	-2%	-59%
CCN1C(=O)[C@H]2[C@@H](c3ccc(-c4ccccc4)cc3)N3CCCC[C@@]3(C(=O)OC)[C@H]2C1=O	2.9%	nt	-8%	nt
Cn1cc(CCNC(=O)C2CCC(=O)N(CCc3ccc(Cl)cc3)C2)cn1 (stereo not given)	5.7%	nt	-9%	-2%
Cc1nn(-c2ccc(Cl)cc2)c(Cl)c1/C=N/NC(=O)c1ccc(NS(=O)(=O)c2cccs2)cc1	-2.8%	nt	2%	nt
C=CCn1c(=O)/c(=C2/Sc3cc(OC)ccc3N2C)s/c1=C1\C(=O)N(CC)C(=S)N1C	nt	4	nt	-22%
COc1ccc(NC(C)=O)cc1NC(=O)CN1CCN(S(=O)(=O)c2ccc(C(C)C)cc2)CC1	5.1%	6	1%	-7%
COc1ccc(C)cc1NC(=O)CCN1CCN(c2ccccc2)CC1	1.8%	nt	19%	-3%
CCC(C)C(=O)N1CCc2cc(-c3csc(N)n3)ccc21 (stereo not given)	-0.5%	3	-13%	-67%
COc1ccc(NC(=O)c2cc([N+](=O)[O-])ccc2NC(=O)CNCc2ccccn2)c(OC)c1	-1.8%	nt	8%	-12%
Cc1ccc(NC(=O)c2cc(-c3ccco3)on2)cc1C	3.4%	3	-14%	-46%
CC1=Nc2ccccc2/C1=C/c1sc(=O)n(CC(=O)N2CCCC2)c1O	?	6	?	1%
CC1Cc2cc(/C(O)=C3/C(=O)C(=O)N(CCN4CCOCC4)C3c3cccc(O)c3)ccc2O1 (stereo not given)	-1.0%	4	-12%	-23%
O=C(Nc1cccc(Cl)c1Cl)c1ccncc1	-1.2%	-1	3%	-30%
NC(=S)NN=C1CCCCC12CCCC2	0.3%	nt	-13%	nt
COc1ccc(N2C(=O)c3ccccc3C2=O)cc1	0.5%	8	-4%	-5%
COc1ccc(/C(O)=C2\C(=O)C(=O)N(Cc3ccco3)C2c2cc(OC)ccc2OC)cc1 (stereo not given)	-2.3%	nt	-8%	-6%
O=S(=O)(c1ccc2[nH]ccc2c1)N1CCCCCC1	-2.4%	nt	1%	-11%
COC(=O)C1=NN(c2ccccc2)C2(S1)S/C(=C\c1ccccc1)C(=O)N2c1ccccc1 (stereo not given)	-0.6%	0	-10%	-2%
CCCCCCCCC/C(=N\O)c1ccccn1	1.2%	-4	0%	-19%
O=C(NCCc1ccccc1F)C(=O)Nc1nccs1	3.0%	8	0%	-16%
Cc1ccc2c(c1)N=C(c1ccc(F)cc1)CO2	-0.1%	2	?	-42%
O=C(CSc1n[nH]c(=O)[nH]c1=O)Nc1ccc(C(=O)O)cc1	-0.6%	12	-1%	0%
O=C(CSc1nccc(-c2cccs2)n1)Nc1ccc(F)c(Cl)c1	1.2%	-12	3%	3%
Cc1ccc(C(=O)COC(=O)CCN2C(=O)C3C4CC(C(Br)C4Br)C3C2=O)cc1 (stereo not given)	-1.6%	2	6%	-6%
COc1ccc(S(=O)(=O)N2CCC(N3CCN(c4ccccc4)CC3)CC2)cc1	nt	-4	nt	-11%
O=C1CC(c2cccc([N+](=O)[O-])c2)c2ccc3ccccc3c2N1 (stereo not given)	-3.1%	0	-8%	0%
COc1ccccc1Oc1ccc2c(c1)C(=O)N(CC(=O)O)C2=O	3.3%	nt	9%	-1%
Cc1ccc(CNC(=O)NCc2ccccc2)cc1	0.8%	3	-5%	-39%
Cc1ccc(NC(=O)Nc2cccc(C)n2)cc1	0.7%	nt	1%	-66%&-55%
Cc1ccc(/C=C/C(=O)NCc2ccco2)o1	nt	-4	nt	-7%
CC(Sc1ccc2ccccc2n1)C(=O)O (stereo not given)	3.3%	-1&-9	-6%	-7%&-2%
C/C(=N\NC(=O)CNC(=O)c1ccco1)c1ccc(Br)cc1	-3.2%	nt	11%	0%
O=C1CC(c2ccc(F)cc2)Cc2nc(NCC3CCCO3)ncc21 (stereo not given)	0.0%	nt	29%	-12%
O=C(NCc1ccc2c(c1)OCO2)c1cc(=O)[nH]c2ccccc12	-2.1%	13	-1%	0%
Cc1ccc(S(=O)(=O)N2CCCCC2)cc1C(=O)NCCN1CCOCC1	0.1%	nt	-9%	nt
CCn1cc(C2=NOC(C(=O)Nc3c(C)nn(Cc4ccc(F)cc4)c3C)C2)c(C)n1 (stereo not given)	3.7%	8	?	2%
Cc1cc(N=Nc2ccc3ccccc3c2)ccc1O	0.0%	nt	27%	-31%
CC(=O)N/C(=C\c1ccccc1)C(=O)OC(C)C(=O)Nc1ccccc1F (stereo not given)	0.2%	nt	6%	nt
CCOC(=O)c1cc2c(nc1C)-c1cc(Cl)cc(Cl)c1OC2O (stereo not given)	?	5	-9%	4%
CC1(C(=O)O)Cc2ccccc2C(=O)O1 (stereo not given)	-3.6%	-4	1%	-1%
CCCNc1nc2c(c(=O)[nH]c(=O)n2C)n1Cc1ccc(F)cc1	-1.0%	7	5%	-10%
NC(=O)c1cc([N+](=O)[O-])ccc1NCCc1ccccc1	-2.3%	nt	1%	-11%
C=C(C)CN(CC)C(=O)CSc1nc(O)cc(=O)n1C1CCCC1	-0.5%	4	-12%	-1%
Cc1ccc(C)c(OCC(=O)NNC(=O)CSC(=S)N2CCCC2)c1	-4.7%	nt	1%	nt
COc1cccc(-c2nc(N3CCCC3)c3ccccc3n2)c1O	5.0%	-6	19%	1%
Clc1ccccc1-c1nn2c(Cn3cnc4ccccc43)nnc2s1	-3.4%	-1	0%	-28%
Cc1ccc(Cl)cc1N1CCN(C(=O)Cc2csc(Nc3nc(=S)[nH]c4ccccc34)n2)CC1	-6.1%	7	1%	3%
COc1ccc(CNc2cc(C)nc3ccc(OC)cc23)cc1	-0.2%	nt	-3%	26%
CCN(CC)c1ccc(/C=C(\C#N)C(=O)c2ccc(Br)cc2)cc1	?	-9	?	6%
COc1ccc(S(=O)(=O)NCC(c2ccc3c(c2)OCO3)N2CCOCC2)cc1 (stereo not given)	-3.3%	nt	-25%	nt

The results go on:
SMILES	Rango-impB inh	GLA inh pH 4.5	Rango dissoc inh	miR-21 FLuc
O=C(Nc1ccc(Cl)cc1)N1CCC(c2nc(-c3cccs3)no2)CC1	0.2%	-16	-2%	0%
CC(SCc1ccccc1)C(=O)Nc1ccccc1F (stereo not given)	-2.7%	nt	12%	-15%
O=C(CCN1C(=O)CSc2ccccc21)Nc1cccc(C(F)(F)F)c1	0.8%	nt	7%	nt
CN(C(=O)Cn1cc(C(F)(F)F)ccc1=O)c1c(N)n(Cc2ccccc2)c(=O)[nH]c1=O	-0.8%	-2	-3%	-1%
Cc1cc(C(=O)CC#N)c(C)n1CC(F)(F)F	-1.5%	-1	5%	-9%
CC1CN(C(=O)N2c3ccccc3Sc3ccccc32)CC(C)O1 (stereo not given)	1.6%	-7	-16%	-1%
O=C(NCc1ccco1)c1c(F)c(F)c(F)c(C(=O)NCc2ccco2)c1F	-0.6%	0	10%	-2%
Cc1nn(CC#N)c(=O)n1-c1ccc(Cl)cc1	?	5	-3%	-3%
Cc1ccc(NC(=O)c2cc(S(=O)(=O)N(C)C)ccc2N2CCCC2)cc1S(=O)(=O)N(C)C	0.0%	nt	0%	nt
CCOC(=O)C1CCCN(C2CC(=O)N(c3cccc(C(F)(F)F)c3)C2=O)C1 (stereo not given)	-0.1%	0	0%	7%
C=CCn1c(NCc2ccc(OC)cc2O)nc2ccccc21	0.8%	nt	-4%	-41%
Cc1ccc(S(=O)(=O)N2CCN(S(=O)(=O)N3CCCCCC3)CC2)cc1	2.0%	5	-6%	0%
N#CCC(=O)Nc1ccc(C(=O)Nc2cccc(S(N)(=O)=O)c2)cc1	?	4	-23%	1%
COc1ccc(C(=O)N/N=C/C(Br)=C/c2ccccc2)cc1	-1.4%	-7	5%	-12%
CCSc1ccccc1C(=O)Nc1cc(C)on1	-0.8%	2	0%	-2%
CCN(C(=O)C1CCCN(c2ncnc3c2nc2n3CCCCC2)C1)c1cccc(Cl)c1 (stereo not given)	-0.9%	nt	33%	?
COc1ccc(NC(=O)CSc2nnc(-c3ccncc3)n2C)cc1	4.1%	1	-10%	-1%
O=C(c1ccc(S(=O)(=O)N2CCCC2)cc1)N(Cc1ccco1)C1CCS(=O)(=O)C1 (stereo not given)	0.8%	15	36%	3%
CSc1ccc(C(=O)N2CCC(n3nccc3NC(=O)C3CC3)CC2)cc1	1.4%	nt	9%	-6%
Cc1cc(Nc2cccc(Cl)c2C)n2ncnc2n1	-0.2%	5	-3%	-8%

Entries from the list above containing bromine:
SMILES	Rango-impB inh	GLA inh pH 4.5	Rango dissoc inh	miR-21 FLuc
Cc1ccc(C(=O)COC(=O)CCN2C(=O)C3C4CC(C(Br)C4Br)C3C2=O)cc1 (stereo not given)	-1.6%	2	6%	-6%
C/C(=N\NC(=O)CNC(=O)c1ccco1)c1ccc(Br)cc1	-3.2%	nt	11%	0%
CCN(CC)c1ccc(/C=C(\C#N)C(=O)c2ccc(Br)cc2)cc1	?	-9	?	6%
COc1ccc(C(=O)N/N=C/C(Br)=C/c2ccccc2)cc1	-1.4%	-7	5%	-12%

Next results.
SMILES	Rango-impB inh	GLA inh pH 4.5	Rango dissoc inh	miR-21 FLuc
Cc1cccc(C)c1NC(=O)CS(=O)CC(=O)NC1CCN(Cc2ccccc2)CC1 (stereo not given)	0.0%	11	9%	-2%
Cc1ccc(-c2nc(NC(=O)CSc3nnc(C)s3)ns2)cc1	3.5%	-3	-9%	-27%
COc1ccc(Cn2c(=O)oc3ccccc32)cc1F	-0.5%	nt	-3%	-7%
COc1cc(NC(C)CCCN)c2ncccc2c1Oc1ccccc1 (stereo not given)	?	-3	-24%	-7%
CCc1cccc(NC2c3ccccc3C(=O)N2c2ccc(C)cn2)c1 (stereo not given)	0.3%	-15	1%	-19%
COC(=O)c1ccccc1S(=O)(=O)N(CCCO)Cc1cc2c(C)ccc(C)c2[nH]c1=O	-2.7%	6	4%	0%
CNC(=O)c1ccc(Nc2nc(-c3ccccc3)nc3ccccc23)cc1	-4.0%	nt	2%	13%
COc1ccc(-c2ccc(SCC(=O)NCc3ccco3)nn2)cc1	-1.8%	14	-1%	-33%
CCOC(=O)c1c(C2CC2)csc1NC(=O)COC(=O)c1cnc(Cl)c(Cl)c1	0.6%	-7	-4%	-4%
O=C(COc1ccc(Cl)cc1)NCCCNC(=O)c1ccccn1	-2.9%	nt	2%	2%
O=C(CC12CC3CC(CC(C3)C1)C2)NCO	4.3%	6	13%	-15%

Not all compounds are listed (hit frequency here may not be typical).
